From PubChem
NPYLR7 ag: agonists of mosquito NPYLR7 receptor, primary screen, cell-based, Aedes aegypti, calcium fluorescence, mosquito biting behavior; activation, % at 10 µM; HEK293T NPYLR7/Galpha15, GCaMP6s calcium fluorescence; actives 0.15% (n = 270,000); Aedes aegypti neuropeptide Y-like receptor 7 (NPYLR7); in the data active = activation above about 40%;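 note: 0% = vehicle and 100% = reference agonist at the receptor; some compounds past the cut are filed as inactive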
NPYLR7 ag max-min: recorded beside NPYLR7 ag, whose call it bears; activation, %; measured here: Max-Min RFU normalised activation; some inactives read as strong as hits;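 span of the calcium signal over five minutes; 0% = vehicle and 100% = native peptide agonist; compound fluorescence can raise it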
An asterisk follows results filed as active.

Start of the listing, in advance:
SMILES	NPYLR7 ag	NPYLR7 ag max-min
CC(=O)Nc1ccccc1OCCn1c(=O)oc2ccccc21	-4	-6
O=C1Oc2ccccc2C(=O)C1=CN1CCCc2ccccc21	-3	-5
Cc1ccc(-n2ccc3nc(N4CCCCC4)ncc3c2=O)cc1	2	6
CCCN(C)C(=O)C(C1CCCC1)N1CCN(C(=O)C2CCC2)CC1 (stereo unspecified)	-5	-5
COC(=O)C(C)CN(C)S(=O)(=O)c1sccc1OC (stereo unspecified)	5	5
CC1(C)CC(=O)c2c(nc3sc(C(=O)N4CCOCC4)c(N)c3c2-c2ccccc2)C1	-7	-11

The list itself (from the top)
SMILES	NPYLR7 ag	NPYLR7 ag max-min
CC(=O)Nc1ccccc1OCCn1c(=O)oc2ccccc21	-4	-6
O=C1Oc2ccccc2C(=O)C1=CN1CCCc2ccccc21	-3	-5
Cc1ccc(-n2ccc3nc(N4CCCCC4)ncc3c2=O)cc1	2	6
CCCN(C)C(=O)C(C1CCCC1)N1CCN(C(=O)C2CCC2)CC1 (stereo unspecified)	-5	-5
COC(=O)C(C)CN(C)S(=O)(=O)c1sccc1OC (stereo unspecified)	5	5
CC1(C)CC(=O)c2c(nc3sc(C(=O)N4CCOCC4)c(N)c3c2-c2ccccc2)C1	-7	-11
Cn1nccc1C(=O)N1CCCC(C(=O)c2ccc(C(F)(F)F)cc2)C1 (stereo unspecified)	1	0
CC(NCCC1CCCO1)c1ccc(Br)cc1 (stereo unspecified)	-1	0
CC(C)c1nc2cc(C(=O)NCC3OCCc4ccccc43)ccc2o1 (stereo unspecified)	3	-1
CN(C)c1ccc(NC(=O)c2ccc3c(c2)CCC(=O)N3)cn1	1	-1
CCCCc1c(C)[nH]c(C(=O)OCC)c1C	-2	-1
COc1cncc(-c2cnc3ccc(NCc4ccc5c(c4)OCO5)nn23)c1	0	-3
O=C(COc1ccc([N+](=O)[O-])cc1)NN=C1CCCC1	4	3
O=C(O)[C@@H]1[C@H](C(=O)N2CCCC2c2ccncc2)[C@@H]2C=C[C@H]1CC2 (stereo partly specified)	-5	-10
CCOC(=O)c1c(CCc2ccc3c(c2)OCO3)csc1N	0	0
CN(C)CCCN(C(=O)Cc1ccccc1)c1nc2c(F)cccc2s1	6	4
Cc1ccccc1Cn1c(=O)c2c(nc3n(C4CCCC4)c(C)c(C)n23)n(C)c1=O	1	5
CC(C)c1nc(C(=O)NCc2cnn(C)c2)nn1-c1cccc(F)c1	-2	-4
O=C(CSc1nc(=O)[nH]c2c1CCC2)c1ccc(F)cc1	-1	-5
O=S(=O)(NC1(c2ccc(Br)cc2)CC1)c1ccc(Cl)nc1Cl	-2	-3
CCNc1ccnc(N2CCN(Cc3ncnn3CC)CC2)n1	1	17
CC(C)(C)c1cc2nc(-c3ccccc3F)cc(C(=O)NC3CC3)n2n1	17	29
CCSc1nnc(NC(=O)/C=C/c2ccc(F)cc2)s1	3	4
COC(=O)COC1C[C@](OCc2ccc(F)cc2)(C(=O)NCC2CC2)C[C@H]2OC(C)(C)O[C@@H]12 (stereo partly specified)	5	10
COc1ccc(/C=C/C(=O)Oc2cc(C)[nH]c(=O)c2[N+](=O)[O-])cc1OC	2	1

Not a retest: an excerpt of the list.
SMILES	NPYLR7 ag	NPYLR7 ag max-min
CC(NCCC1CCCO1)c1ccc(Br)cc1 (stereo unspecified)	-1	0
CC(C)c1nc2cc(C(=O)NCC3OCCc4ccccc43)ccc2o1 (stereo unspecified)	3	-1
CN(C)c1ccc(NC(=O)c2ccc3c(c2)CCC(=O)N3)cn1	1	-1
CCCCc1c(C)[nH]c(C(=O)OCC)c1C	-2	-1
COc1cncc(-c2cnc3ccc(NCc4ccc5c(c4)OCO5)nn23)c1	0	-3
O=C(COc1ccc([N+](=O)[O-])cc1)NN=C1CCCC1	4	3

Full records, looked up by structure:
CCCN(C)C(=O)C(C1CCCC1)N1CCN(C(=O)C2CCC2)CC1 (stereo unspecified) reads NPYLR7 ag = -5; NPYLR7 ag max-min = -5
O=C(O)[C@@H]1[C@H](C(=O)N2CCCC2c2ccncc2)[C@@H]2C=C[C@H]1CC2 (stereo partly specified) reads NPYLR7 ag = -5; NPYLR7 ag max-min = -10

Continued.
SMILES	NPYLR7 ag	NPYLR7 ag max-min
CCOC(=O)C1(C)CCN1C(=O)/C=C/c1ccccc1 (stereo unspecified)	-3	-8
Clc1ccc(-c2ccc(/C=N/n3cnnc3)o2)c(Cl)c1	-9	-16
Cc1ccc(-n2ncc3c(=O)n(NC(=O)c4ccc([N+](=O)[O-])cc4)cnc32)cc1C	2	-2
CC(c1ccccc1)c1nnc(N)s1 (stereo unspecified)	10	4
NS(=O)(=O)c1ccc(NC(=O)c2cc(-c3ccccc3)nc3ccccc23)cc1	-6	-16
COC(=O)c1c(C)c(C(=O)C(C)N(Cc2ccc(F)cc2)C(=O)c2cccc([N+](=O)[O-])c2)c(C)n1C (stereo unspecified)	13	20
CCOc1ccccc1N1CCN(C(=O)c2cc(-c3ccc(OC)cc3OC)nn2-c2ccccc2Cl)CC1	-6	1
CC(C)SCCNC(=O)c1cc(Cn2ccc3ccccc32)[nH]n1	9	1
O=C(CSc1nnc(NC(=O)c2ccc(Cl)c([N+](=O)[O-])c2)s1)Nc1ccccc1F	6	7
Fc1ccc(-c2csc(NCc3ccco3)n2)cc1	9	3
CC(=O)c1c(C)nn2c3ccccc3n(CCN3CCCCC3)c12	-1	0
COc1cccc(CNC(=O)CCC2CCCN(c3nc4ccccc4s3)C2)c1 (stereo unspecified)	3	-4
CC(C)n1ccc(C(=O)N(Cc2ccccn2)c2nc3c(Cl)cccc3s2)n1	4	10
CC1(C)C(C(=O)ON2C(=O)CCC2=O)C1(C)C	1	-1
S=c1[nH]nc(CCc2ccccc2)o1	0	-4
CC(C)Cc1nc(CN(C)Cc2cccc3c2OCO3)no1	3	2
Cn1c(=O)[nH]c(=O)c2c1nc(N1CCN(Cc3ccccc3)CC1)n2CCc1ccccc1	9	7
O=C(COc1ccc2ccccc2c1)N1CCC(Nc2ccccc2)CC1	-4	-7
CC(=O)c1ccc(N2CCN(C(=O)CCn3c(=S)[nH]c4cc5c(cc4c3=O)OCO5)CC2)cc1	-4	2
COCCCN(CC(=O)N(CCc1ccccc1)Cc1ccc(C)o1)Cc1c(F)cccc1Cl	0	5
CCCCn1c(Cc2ccccc2)nc2ccccc21	-6	-8
O=C(NCCc1ccccc1)C1CCCN(C2CCN(c3cnccn3)CC2)C1 (stereo unspecified)	0	4
COc1ccc(OC)c(-c2ccnc(-n3ncc(C(=O)N(C)CC(O)c4ccccc4)c3C)n2)c1 (stereo unspecified)	-2	-3
CCOCCOc1nc(-c2ccc(C(F)(F)F)cc2)n(-c2cccc(NC(=O)c3ccc(F)cc3)c2)n1	18	15
CC(C)(CN1CCOCC1)CN1CCOC(Cc2ccccc2Cl)C1 (stereo unspecified)	8	4
SMILES	NPYLR7 ag	NPYLR7 ag max-min
NC(=O)c1c(N)c(C(=O)c2ccc(Cl)cc2)n2ccccc12	-3	-7
CC(CNS(C)(=O)=O)OC(=O)c1ccc(Cn2cncn2)cc1 (stereo unspecified)	1	-1
Cc1ccc(CSc2nc(CC(=O)NCc3nc(-c4ccccc4)no3)cs2)cc1	3	1
Cc1nnc(-c2cccc(NC(=O)C3CCCCN3C(=O)c3ccnn3C)c2)s1 (stereo unspecified)	2	-3
CCOC(=O)c1c(C)c(C(=O)CN(C(=O)Nc2ccccc2C(F)(F)F)C2CC2)c(C)n1CC	-7	3
Cc1ccc(C)c(-c2csc3nc(CNCCN4CCOCC4)[nH]c(=O)c23)c1	1	-4
Cc1noc(C)c1CS(=O)(=O)CC(O)c1ccc(F)cc1 (stereo unspecified)	6	5
CCC(C)(CC(=O)OC)NC(=O)c1cccc(F)c1F (stereo unspecified)	5	3
O=C(NCCc1cnn(-c2ccccc2)c1)[C@H]1Cc2ccccc2CN1	6	2
COc1ccc(/C=C2N=C(/C=C/c3ccc(Cl)cc3Cl)OC\2=O)cc1OC	-7	-12
CCOC(=O)N(C)c1c(CC)nc2c(OCc3ccc(S(C)(=O)=O)cc3)cccn12	6	-6
COc1cccc([C@@H](C)Nc2nc(-c3cccnc3)nc3c2CCNC3)c1	-2	-6
Cn1c(=O)n(Cc2ccc(Br)cc2)c(=O)c2c1nc1n2CCN1Cc1ccco1	11	1
CCN(CC)C(=O)Oc1ccc2c(ccn2Cc2ccc(F)cc2)c1NC(=O)c1cc(C)oc1C	0	7
Cc1cc2c(cnc3ncnn32)c(=O)n1-c1cccc(Cl)c1	4	4
CC(Sc1ccccn1)C(=O)N(C)Cc1ccsc1 (stereo unspecified)	-1	-7
C=CCN(CC(=O)N1CCc2sccc2C1COc1ccc(Cl)cc1)C(=O)c1cccc(Br)c1 (stereo unspecified)	13	12
CCOC(=O)c1cc(-c2ccc(N3CCN(C(=O)c4ccc5c(c4)OCCN5C)CC3)cc2)n(-c2cccc(F)c2)n1	24	14
O=C(c1cccc(Cl)c1)N1CCCC(OCc2ccc(OC(F)(F)F)cc2)C1 (stereo unspecified)	-2	1
O=C(CC1C(=O)NCCN1Cc1ccc(-c2ccccc2)cc1)NCc1ccoc1 (stereo unspecified)	-2	-4
Cc1cc(N)n(-c2nc(C)nc3sc4c(c23)CCC(C)C4)n1 (stereo unspecified)	2	8
Cc1noc(CN(C)C(=O)C(C)n2ccnc2C(C)C)n1 (stereo unspecified)	-5	-9
CCCCN(CC(=O)Nc1cc(-c2ccccc2)nn1-c1ccc(Cl)c(Cl)c1)C(=O)Nc1ccc(F)cc1F	12	8
COc1cccc(CO[C@]2(C(=O)NCCN3CCOCC3)CC(OCc3cccc(Cl)c3)[C@@H]3OC(C)(C)O[C@@H]3C2)c1 (stereo partly specified)	32	22
CCN(C(=O)c1cccc(N2C(=O)CCC2=O)c1)C(C)c1ccc(C#N)cc1 (stereo unspecified)	-3	-2
SMILES	NPYLR7 ag	NPYLR7 ag max-min
CC1Cc2nc(SCC(=O)NCCc3ccccc3)n(C)c(=O)c2S1 (stereo unspecified)	11	7
Cc1cc(C(=O)N(C)C2CCCN(C)C2)nn1-c1ccccc1 (stereo unspecified)	0	-1
CC(NC(=O)Cc1cccc(F)c1)c1cccc(Cl)c1 (stereo unspecified)	0	-1
CCS(=O)(=O)NCc1ccccc1-c1ccc(Cn2cncn2)cc1	-7	-7
O=C(COc1ccccc1)OCc1cc(-c2ccccc2)on1	16	16
CCc1cccc(NC(=O)CSC2=NS(=O)(=O)c3ccc(C)cc3N2)c1	2	-8
Cn1/c(=N\NC(=O)c2ccc(-c3cnco3)cc2)sc2ccccc21	8	8
CSCCC(NC(=O)Cn1nc2c(cc1=O)CSCC2)C(=O)O (stereo unspecified)	2	42
COc1ccc(C(=O)N2CCc3nc(Cc4cccc(C(F)(F)F)c4)[nH]c(=O)c3C2)cc1	-7	3
CC(=O)c1ccc(-c2ccc([N+](=O)[O-])s2)s1	4	4
O=C(CCc1nc(-c2ccc(F)cc2)no1)N1CCOCC1	6	16
CCC(C)N(CC(=O)N(Cc1ccccc1)Cc1sccc1C)C(=O)Nc1ccc(OC)cc1 (stereo unspecified)	9	15
C=CCN1C(=O)NC(c2cccc(F)c2)C2=C1CN(Cc1cccnc1)C2=O (stereo unspecified)	25	20
CS(=O)(=O)N1N=C(c2cn(-c3ccccc3)nc2-c2ccccc2)CC1c1ccccc1O (stereo unspecified)	-3	-5
CC(C)Cc1cc(CNC2CCN(CC(C)C)CC2)no1	4	6
CS(=O)(=O)N1CCC(NC(=O)CCc2cccs2)CC1	25	20
CC(C)c1cc(Cn2ccnc2-c2ccc3c(c2)OCCO3)on1	-2	3
CCNC(=O)NC(C)Cc1ccc(O)cc1 (stereo unspecified)	7	4
O=C(NN=Cc1ccc(O)cc1)c1ccco1	2	1
COc1ccc(CNC(=O)C(C)Sc2ccccc2Br)cc1 (stereo unspecified)	1	3
O=C1NC(=S)NC1=Cc1c(F)cccc1F	11	11
O=C(CCn1ccnc1)Nc1cccc(C(=O)Nc2ccccc2Cl)c1	10	7
CCCCNC(=O)C1(C)CCCCN1Cc1ccc2ccccc2c1 (stereo unspecified)	3	1
CCCn1c(=O)c2ccccc2n2c(SC(C)C)nnc12	4	0
COc1ccccc1-c1nc2cc(C)ccn2c1NC(=O)C1CCCC1	-12	-10
SMILES	NPYLR7 ag	NPYLR7 ag max-min
CCCN(C)c1cc(C(F)(F)F)nc(SCc2ccc(C(=O)NCCOC)o2)n1	3	6
COC(=O)C(Cc1ccccc1)NC(=O)C1CCCCC1C(=O)N1CCN(c2ccc(OC)cc2)CC1 (stereo unspecified)	-8	-14
Cc1ccccc1-n1c(-c2ccc(Cl)cc2)cc(C(=O)N2CCN(C(=O)C3CC3)CC2)c1C	-1	4
CCOC(OCC)c1nc2c(c(=O)[nH]1)CN(CC(O)COCc1ccco1)CC2 (stereo unspecified)	23	18
CCc1nn(C(CC)C(=O)NC(C)CC)c(=O)c2cc3oc(C)cc3n12 (stereo unspecified)	2	0
CC(C)(Oc1ccc(Cl)cc1)C(=O)N1CC=C(c2c[nH]c3ccccc23)CC1	3	4
CC(OC(=O)c1c(NC(=O)C2CCCCC2)sc2c1CCC2)C(N)=O (stereo unspecified)	8	3
Cc1ccc(-c2nc3ccccc3c(=O)n2Cc2cccc(Cl)c2)c(C)c1	7	9
COc1ccc(NC(=O)c2ccsc2)cc1OC(F)F	1	0
COC(=O)Cn1cc(C=NNC(=O)C(O)(c2ccccc2)c2ccccc2)c2ccccc21	1	0
N#Cc1ccccc1COC1C[C@](OCc2cccc(Cl)c2)(C(=O)NC2CC2)C[C@@H](O)[C@H]1O (stereo partly specified)	17	4
COc1cc(-c2nnc(CCC(=O)N3CCN(c4ccccc4F)CC3)c(=O)[nH]2)ccc1OC(C)C	16	7

These rows are one share of the data, so the mix of outcomes need not match the whole.
